# HCMV UL50-53 inh: inhibitors of HCMV UL50-UL53 interaction, biochemical, HTRF. 0.15% of 190,000 active. normalized percent inhibition. inhibition, % (no concentration beside the values). HCMV UL50-UL53 nuclear egress complex (human cytomegalovirus);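 active = both replicates at 50% or more, plus weaker picks with an unusually low signal ratio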;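 also: stock transfer was 100 nL into about 20 µL; 0% = negative control wells and 100% = wells with untagged competitor protein; inactives centre near -12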
# Sa growth inh: S. aureus growth inhibition at 42 and 30 °C, primary screen, LtaS inhibitor project, RN4220, two temperatures | AID 720641, 2013 | relative growth, % (no concentration beside the values) | 0.53% of 170,000 active | OD600, 20 h, 42 °C; stronger effect = lower value;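 active = growth at 42 °C up to 50% and 20 or more points under that at 30 °C, or under 10% at both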;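 also: 300 nL library stock went into each well; scaled to the means of positive and negative controls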
# GIV-Gai inh: inhibitors of GIV peptide binding to Galpha-i3, primary screen, biochemical, fluorescence polarization, FITC-GIV GBA peptide, rat Galphai3. Guanine nucleotide-binding protein G(i) subunit alpha-3 (Rattus norvegicus), P08753. 90 min; stronger effect = lower value; scaled: aluminum fluoride 0%, vehicle 100%. percent of control (FP), % (no concentration beside the values). 0.42% of 210,000 active;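 active = replicate mean at 85% of control or lower, very high polarization wells dropped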;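 also: wells of about 15 µL received 100 nL stock; the first replicate is given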
# Target sequence (P08753 whole entry, looked up): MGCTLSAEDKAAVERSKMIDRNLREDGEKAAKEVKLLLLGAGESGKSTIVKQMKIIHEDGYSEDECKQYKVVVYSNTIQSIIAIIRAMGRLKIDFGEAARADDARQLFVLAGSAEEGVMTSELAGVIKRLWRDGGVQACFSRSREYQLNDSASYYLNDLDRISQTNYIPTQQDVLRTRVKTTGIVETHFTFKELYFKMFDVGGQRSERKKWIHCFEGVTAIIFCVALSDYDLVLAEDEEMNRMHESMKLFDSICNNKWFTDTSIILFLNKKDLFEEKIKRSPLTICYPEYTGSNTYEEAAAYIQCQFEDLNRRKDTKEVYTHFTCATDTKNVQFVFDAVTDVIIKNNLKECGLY
# Sa growth inh second temp: also measured in Sa growth inh; calls as there; relative growth, %; measured here: growth at 30 °C;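 optical density after 20 h as mean of two plates; 100% = untreated growth and lower means inhibition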
# Numbers without * were called inactive; nt = no result given; & = joins results of further samples.
# Second line of a record – HCMV UL50-53 inh	Sa growth inh	Sa growth inh second temp	GIV-Gai inh
CN(CC(=O)Nc1cccc(Cl)c1)S(=O)(=O)c1ccc2[nH]c3c(c2c1)CCCC3
 : nt	115	86	108
Cc1ccc2c(CC(=O)Nc3sc4c(c3C(=O)NCC3CCCO3)CCC4)coc2c1 (configuration not stated)
 : 2	nt	nt	106
CC(C)CN(C(=O)COc1ccc(F)cc1)C1CCS(=O)(=O)C1 (configuration not stated)
 : -1	95	90	nt
N=c1oc2ccc3ccccc3c2cc1C(=O)Nc1ccccc1
 : nt	109	81	101
CN(C)N1C(=O)CC(Nc2ccc(F)cc2)C1=O (configuration not stated)
 : -15	102	106	100
Cc1ccc(C)c(NC(=O)C(C)n2sc3ccccc3c2=O)c1 (configuration not stated)
 : nt	86	96	99
CSc1cccc(NC(=O)C2CCN(S(=O)(=O)c3cnc[nH]3)CC2)c1
 : 3	100	97	110
CCOC(=O)c1c(NC(=O)C(C)Oc2ccc(Cl)c(C)c2)sc2c1CCCC2 (configuration not stated)
 : -58	94	81	110
Cc1nnc(NC(=O)Cn2cnc3onc(C)c3c2=O)s1
 : -9	nt	nt	103
CC(C)(C)C(=O)Nc1nc2nc(-c3ccccc3)cc(=O)n2[nH]1
 : -12	86	85	94
COc1cc(Cl)c(C)cc1NC(=O)c1cnc(C)cn1
 : -42	109	88	nt
Cc1c(N2CCCC2)cc2c(c1-n1cccc1)C(C)(C)CC2(C)C
 : -15	93	87	96
CN(C)CN1C(=O)c2ccccc2C1=O
 : -52	96	87	112
Cc1nn(-c2cc(N3CCCCC3)ncn2)c(C)c1CCC(=O)NCCC1=CCCCC1
 : -20	nt	nt	103
CC1(C)CC(=O)c2sc(NC(=O)/C=C/c3ccccc3)nc2C1
 : 28	88	97	nt
O=C(CN1C(=O)c2ccccc2Sc2ccc(C(=O)N3CCOCC3)cc21)Nc1ccc(Cl)cc1F
 : nt	104	87	103
Cc1cccc(N2CCN(c3ncnc4onc(C)c34)CC2)c1C
 : nt	104	95	103
CCOc1cc(/C=c2\sc3nc4ccccc4n3c2=O)ccc1OCc1ccccc1
 : -9	nt	nt	101
C=CCN1C(=O)/C(=C/C=c2\c3cccc4cccc(c43)n2CC)SC1=S
 : nt	89	99	104
CCCCN1C(=O)CCc2cc(NC(=O)CN3C(=O)c4ccccc4C3=O)ccc21
 : -43	nt	nt	100

# Shown field by field: part of the list above.
CN(C)CN1C(=O)c2ccccc2C1=O
  HCMV UL50-53 inh: -52
  Sa growth inh: 96
  Sa growth inh second temp: 87
  GIV-Gai inh: 112
Cc1nn(-c2cc(N3CCCCC3)ncn2)c(C)c1CCC(=O)NCCC1=CCCCC1
  HCMV UL50-53 inh: -20
  Sa growth inh: nt
  Sa growth inh second temp: nt
  GIV-Gai inh: 103
CC1(C)CC(=O)c2sc(NC(=O)/C=C/c3ccccc3)nc2C1
  HCMV UL50-53 inh: 28
  Sa growth inh: 88
  Sa growth inh second temp: 97
  GIV-Gai inh: nt
O=C(CN1C(=O)c2ccccc2Sc2ccc(C(=O)N3CCOCC3)cc21)Nc1ccc(Cl)cc1F
  HCMV UL50-53 inh: nt
  Sa growth inh: 104
  Sa growth inh second temp: 87
  GIV-Gai inh: 103

# (listing goes on)
# Second line of a record – HCMV UL50-53 inh	Sa growth inh	Sa growth inh second temp	GIV-Gai inh
CCNc1oc(-c2ccc(F)cc2)nc1S(=O)(=O)c1ccc(Cl)cc1
 : 0	109	106	101
CSc1nnc(SC)n1CCNC(=O)c1cccc(Cl)c1
 : -15	100	91	100
CCOC(=O)c1cc(-c2ccc(OC)c(S(=O)(=O)N(C)c3ccc(OCC)cc3)c2)on1
 : -29	91	87	102
Cc1cccc(NC(=O)C2CCCN(c3cnc4ccccc4n3)C2)c1C (configuration not stated)
 : -13	nt	nt	95
Cc1ccc(-c2cc3n(n2)CCC(=O)N3CC(=O)NCc2ccc3c(c2)OCO3)cc1
 : 3	nt	nt	118
Cc1ccc(NC(=O)c2ccc3oc(=O)c(S(=O)(=O)c4ccccc4)cc3c2)cc1C
 : -22	104	91	94
O=C(NCCN1CCc2ccccc2C1)C1CCN(S(=O)(=O)N2CCCC2)CC1
 : -33	101	82	103
O=C(Cc1csc2nc(-c3ccccc3)cn12)NC1CCCC1
 : -10	96	92	106
Cc1cc(C)cc(Nc2ncnc3c2nc2n3CCCC2)c1
 : nt	89	77	105
O=C(Cn1c(=O)n(Cc2ccc(C(=O)NCc3ccccc3Cl)cc2)c(=O)c2ccccc21)Nc1ccc(F)cc1
 : -1	94	83	104
CCOCN(C(=O)Cn1c(-c2ccco2)nc2ccccc21)c1c(C)cccc1CC
 : -22	95	95	105
Cc1ccc(-c2c(C(F)(F)F)nn3c(NCCOCCO)cc(C)nc23)cc1
 : -9	nt	nt	95
CCCS(=O)(=O)NCCc1sc2nc(-c3ccc(Cl)cc3)nn2c1C
 : nt	101	91	100
CC(C)(C)c1ccc(-c2nc(O)c(CC(=O)O)s2)cc1
 : -19	97	77	98
CC1CCN(Cc2nc(-c3ccccc3)no2)CC1
 : -18	nt	nt	100
COC(=O)c1ccccc1NC(=O)/C(C#N)=C/c1ccc2noc(-c3ccccc3)c2c1
 : -19	103	95	119
CCc1nc2c(cnn2-c2ccccc2)c(=O)n1-c1ccc(Br)cc1
 : -10	82	85	103
Cc1cc2c(cc3n2CC(C)(C(=O)NC2CCCCC2)N(Cc2cccc(Br)c2)C3=O)o1 (configuration not stated)
 : -21	nt	nt	108
COCc1c(C(=O)OCc2cc(=O)oc3cc(C)ccc23)oc2ccccc12
 : -22	86	82	nt
Cc1cc2c3c([nH]c2cc1S(=O)(=O)N1CCC(C)CC1)CCCC3=O
 : -27	91	79	99

# Profiles, quoted from the list. Order of values: HCMV UL50-53 inh, Sa growth inh, Sa growth inh second temp, GIV-Gai inh
# COCc1c(C(=O)OCc2cc(=O)oc3cc(C)ccc23)oc2ccccc12 is listed as -22, 86, 82, nt
# CC(C)(C)c1ccc(-c2nc(O)c(CC(=O)O)s2)cc1 is listed as -19, 97, 77, 98

# Following part
# Second line of a record – HCMV UL50-53 inh	Sa growth inh	Sa growth inh second temp	GIV-Gai inh
N/C(=N\S(=O)(=O)c1ccc(Cl)c(Cl)c1)c1ccccn1
 : -18	81	84	95
Cc1ccc(CNC(=O)CCC(=O)N2CC(C)Sc3ccccc32)cc1 (configuration not stated)
 : nt	102	95	108
CCC(=O)N1CCc2cc(Br)cc(S(=O)(=O)NCCc3ccc(OC)c(OC)c3)c21
 : -8	116	81	103
COCCCNC(=O)Cn1cnc2sc(C)c(S(=O)(=O)N3CCC(C)CC3)c2c1=O
 : -16	91	94	101
CCOC(=O)c1ccc(NC(=O)CCC(=O)N2CCSc3ccccc32)cc1
 : nt	127	100	106
Cc1c(Cl)cccc1-n1c(SCC(=O)N2CCC(C(=O)O)CC2)nc2ccccc2c1=O
 : -24	99	84	nt
CCOC(=O)CC1C(=O)NCCN1C(=O)COc1ccc(C(C)(C)C)cc1 (configuration not stated)
 : -22	113	85	99
COc1ccc(OC(C)c2nc3ccccc3[nH]2)cc1 (configuration not stated)
 : -27	88	80	104
O=S(=O)(c1ccc2nc(N3CCCC3)ccc2c1)N1CCOCC1
 : -12	nt	nt	100
CC(=O)N1CCc2cc(S(=O)(=O)CCC(=O)N3CCCC3)ccc21
 : nt	109	98	104
CCC(=O)NCC1(c2ccccc2)CCCC1
 : 5	98	120	91
CN1/C(=C\C(=O)COC(=O)C2CCN(S(=O)(=O)c3ccc4c(c3)OCCO4)CC2)C(C)(C)c2ccccc21
 : 22	95	95	nt
CC1=C(C(N)=O)C(c2cccc(C)c2)n2nc(-c3ccc(Cl)cc3)nc2N1 (configuration not stated)
 : nt	138	103	106
COc1ccc(CC(=O)Nc2c(C(=O)Nc3ccccc3F)oc3ccccc23)cc1
 : -8	101	85	108
N#CCCn1ncc(C#N)c1-n1cccc1
 : nt	115	85	99
O=C(Cn1c(=O)nc(-c2ccccc2)c2ccccc21)NCCc1ccccc1
 : -70	84	86	106&107
Cc1cc(C)nc(SCc2ccccc2C(=O)O)n1
 : -15	93	92	nt
CCC(C)NC(=O)c1ccc(CS(=O)(=O)Cc2cccc(C)c2)o1 (configuration not stated)
 : 8	100	95	108
CCc1ccc(NC2=CC(=O)CC(c3ccco3)C2)cc1 (configuration not stated)
 : nt	106	77	97
Cc1ccc(-n2ncc3c(=O)[nH]c(SCC(=O)Nc4ccccc4C(F)(F)F)nc32)cc1
 : nt	101	91	100
CCC1CCCCN1C(=O)CSCc1ccc(Cl)cc1 (configuration not stated)
 : 1	73	106	nt
O=C(NCCc1c[nH]c2ccc(Cl)cc12)C1CCCN(c2nc3cccnc3s2)C1 (configuration not stated)
 : -9	nt	nt	102
CCC(=O)Nc1nc2cc(Cl)c(C)cc2s1
 : -19	118	80	102
Cc1cccc(N2CCN(c3nc4ccccc4c4nc(-c5ccccc5)nn34)CC2)c1C
 : -16	113	87	105
CC(C)c1ccc(NC(=O)c2ccc3c(c2)CCN3S(=O)(=O)c2ccccc2)cc1
 : -24	103	83	104
O=C(C1CC1)N1CCc2cc(S(=O)(=O)NCc3ccccc3)ccc21
 : nt	114	86	97
CN(C(=O)COC(=O)C1(c2ccc(F)cc2)CCCC1)c1ccccc1
 : -19	108	101	nt
CCN(CCO)C(=S)Nc1ccccc1C
 : -22	75	89	nt
CCN1C(=O)CC(OC(C)=O)C1=O (configuration not stated)
 : -26	27	43	101
O=C1C2C(c3ccccc3)C=CC(c3ccccc3)C2C(=O)N1c1nccs1 (configuration not stated)
 : nt	112	104	100
CCOC(=O)Nc1ccc2c(CNCC(C)C)cc(=O)oc2c1
 : 2	100	98	nt
CC1(C)CC(=O)C2=C(C1)Nc1ccccc1N(C1OC(=O)c3ccccc31)C2c1ccco1 (configuration not stated)
 : -49	93	83	109
CCc1cc(=O)[nH]c(SCc2ccc(C)cc2)n1
 : 7	nt	nt	106
CC(C)(C)NC(=O)C1CC(=O)OC1(C)C (configuration not stated)
 : 0	87	82	103
C=C(C)c1cccc(C(C)(C)NC(=O)N2CCCC2)c1
 : 18	116	120	102
Cc1ccc(S(=O)(=O)N(CC(O)CN2CCCCC2)c2ccccc2)cc1 (configuration not stated)
 : -6	97	95	100
O=C(Cc1ccsc1)OCN1C(=O)c2ccccc2C1=O
 : -47	85	70	nt
O=C(OCCN1C(=O)c2cccc3c(N4CCCCC4)ccc(c23)C1=O)c1ccc(S(=O)(=O)N2CCOCC2)cc1
 : -17	nt	nt	107
Cc1oc(-c2ccccc2Cl)nc1CS(=O)(=O)CC(=O)NCc1ccc(F)cc1
 : 2	100	86	100
CCOc1cc(S(=O)(=O)N(CC)CC)c(OCC)cc1-n1cnnn1
 : -21	115	99	98
O=C(OCCCCN1C(=O)c2ccccc2C1=O)c1ccc(S(=O)(=O)N2CCCC2)cc1
 : 1	96	90	nt
COC(=O)c1ccc(Sc2ccc(F)cc2)c(N)c1
 : -16	81	91	106
CCCCC(=O)O[C@]1(C(=O)CO)CCC2C3CCC4=CC(=O)CC[C@]4(C)C3[C@@H](O)C[C@@]21C (some centres not stated)
 : -53	89	83	nt
CN(/N=C/c1ncc(C(F)(F)F)cc1Cl)C(=O)c1ccc(Cl)cc1
 : -4	104	92	107
Cc1ccc(NC(=O)C2CCCN(S(=O)(=O)c3c(C)n[nH]c3C)C2)cc1Cl (configuration not stated)
 : 8	90	90	101
CCOc1ccc(NC(=O)C2CCCN(S(=O)(=O)c3cc(-c4noc(C)n4)ccc3Cl)C2)cc1 (configuration not stated)
 : -26	nt	nt	103
CC1=C(c2ccc(C(C)C)cc2)S(=O)(=O)N(CC(=O)NCc2ccc(N(C)C)cc2)C1=O
 : -36	nt	nt	99
CCn1c(SCCC(=O)Nc2ccccc2)nnc1-c1ccc(OC)cc1
 : 0	113	98	101
O=C(NC(O)C(=O)c1ccccc1)c1ccc(F)cc1 (configuration not stated)
 : -25	98	92	nt
CCOC(=O)c1cnc(Nc2nc3ccccc3s2)nc1CSc1ncccn1
 : nt	115	89	107

# Further records
# Second line of a record – HCMV UL50-53 inh	Sa growth inh	Sa growth inh second temp	GIV-Gai inh
Cc1ccc(C)c(CN2CCNC2=O)c1
 : -3	97	94	104
O=C(CCC(=O)N1CCc2cc(S(=O)(=O)NC3CC3)ccc21)N1CCCC1
 : -34	nt	nt	101
Cc1ccc(CNc2nccn(-c3cc(C)cc(C)c3)c2=O)cc1
 : nt	110	84	97
O=C(Nc1c2c(nn1-c1cccc(Cl)c1)CS(=O)(=O)C2)c1ccc(S(=O)(=O)N2CCCC2)cc1
 : -31	102	81	97
CCOCCCn1c(SCc2ccccc2)nnc1-c1ccncc1
 : 2	89	93	nt
Cc1nsc(N)c1C(=O)OCC(=O)N1CCN(S(=O)(=O)c2ccc(Cl)cc2)CC1
 : -7	77	92	nt
Cc1cc(NC(=O)COC(=O)CCc2c[nH]c3ccccc23)no1
 : -16	83	94	nt
COc1ccccc1CNC(=O)[C@@H]1CC(O)CN1C(=O)C12CC3CC(CC(C3)C1)C2 (some centres not stated)
 : -10	112	93	nt
O=C(c1ccc2c(c1)N(Cc1ccccc1)C(=O)c1ccccc1S2(=O)=O)N1CCN(c2ccccn2)CC1
 : -17	107	90	107

# Assay outcomes: PubChem BioAssay, ICCB-Longwood Screening Facility, Harvard Medical School
